Source: PubChem BioAssay
miR-21 FLuc: raises the signal of a miR-21 reporter. Potency, µM (doses to about 38.3 µM), inactives show top-dose reporter change, positive = more light. AID 2288. HeLa miR-21 FLuc reporter, luciferase, 48 h. 340,000 tested, under 10 active; active = well fitted rising curve with a large enough effect; inconclusive = small, poorly fitted or top-dose-only effect; inactive = no such curve, though single readings can be large or run the other way;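 also: % of control where 0% means no effect; miR-21 action dims this reporter so a rising signal means less miR-21 action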
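Using DMEM plus 10% FBS, HeLa miR-21-FLuc cells are incubated with test compounds (final up to about 40uM) for 48 hours; firefly luciferase signal is then imaged following reagent-mediated lysis.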
Rango release inh: prevents RanGTP from dissociating the Rango-importin beta complex; Biochemical FRET Rango-importin beta, RanGTP-induced dissociation; Potency, µM (highest dose often 46.1 µM), for the others: top-dose activity change, negative = inhibition; 340,000 compounds, 0.071% hits; AID 540253; active means falling FRET ratio curve, often poorly fitted, with flat reads before Ran was added; inconclusive means other falling curves, or compound fluorescence or quenching; inactive means flat or rising ratio curve;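 also: potency is read from the fitted curve at half-maximal effect; % of control where 0% means no effect; nearly all actives have a fitted effect of over 45% in size; -100% = wells without RanGTP and RCC1; the record marks most hits as doubtful in a second field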
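Quantitative HTS using a FRET biosensor: 0.1 uM Rango, 0.25 uM importin beta, 0.6 uM Ran, 2 mM GTP, 0.2 uM RCC1 final, PBS with DTT, Tween-20 and BSA. Post-read taken 45 min after Ran addition.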
GLA inh pH 4.5: blocks human alpha-galactosidase A at pH 4.5. purified enzyme, 4-MU-alpha-Gal fluorescence, pH 4.5. P06280. 230,000 tested, under 10 active. activity change, negative = inhibition, % at 105 µM; inconclusive = small, poorly fitted or top-dose-only inhibition, or a rising curve; inactive = flat fitted curve, though single readings scatter; no compound was filed as active;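 also: 0% = full activity with enzyme and -100% = basal without enzyme; dose as in the result columns while the protocol names 77 µM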
Rango-impB inh: prevents formation of the Rango-importin beta complex | Rango CFP/YFP FRET sensor + importin beta, 45 min | 340,000 compounds, 0.031% hits | AID 540263 | Potency, µM (top dose mostly 92.2 µM), without a hit: at the top dose inhibition of complex formation | Q14974; active = rising FRET ratio curve, often small or poorly fitted; inconclusive = mostly compound fluorescence or quenching in the first reads; inactive = flat curves in all reads;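 also: potency is read from the fitted curve at half-maximal effect; 0% = DMSO wells and 100% = buffer wells lacking importin beta; nearly all actives have a fitted effect of over 15% in size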
Target sequence (Q14974 whole entry, looked up): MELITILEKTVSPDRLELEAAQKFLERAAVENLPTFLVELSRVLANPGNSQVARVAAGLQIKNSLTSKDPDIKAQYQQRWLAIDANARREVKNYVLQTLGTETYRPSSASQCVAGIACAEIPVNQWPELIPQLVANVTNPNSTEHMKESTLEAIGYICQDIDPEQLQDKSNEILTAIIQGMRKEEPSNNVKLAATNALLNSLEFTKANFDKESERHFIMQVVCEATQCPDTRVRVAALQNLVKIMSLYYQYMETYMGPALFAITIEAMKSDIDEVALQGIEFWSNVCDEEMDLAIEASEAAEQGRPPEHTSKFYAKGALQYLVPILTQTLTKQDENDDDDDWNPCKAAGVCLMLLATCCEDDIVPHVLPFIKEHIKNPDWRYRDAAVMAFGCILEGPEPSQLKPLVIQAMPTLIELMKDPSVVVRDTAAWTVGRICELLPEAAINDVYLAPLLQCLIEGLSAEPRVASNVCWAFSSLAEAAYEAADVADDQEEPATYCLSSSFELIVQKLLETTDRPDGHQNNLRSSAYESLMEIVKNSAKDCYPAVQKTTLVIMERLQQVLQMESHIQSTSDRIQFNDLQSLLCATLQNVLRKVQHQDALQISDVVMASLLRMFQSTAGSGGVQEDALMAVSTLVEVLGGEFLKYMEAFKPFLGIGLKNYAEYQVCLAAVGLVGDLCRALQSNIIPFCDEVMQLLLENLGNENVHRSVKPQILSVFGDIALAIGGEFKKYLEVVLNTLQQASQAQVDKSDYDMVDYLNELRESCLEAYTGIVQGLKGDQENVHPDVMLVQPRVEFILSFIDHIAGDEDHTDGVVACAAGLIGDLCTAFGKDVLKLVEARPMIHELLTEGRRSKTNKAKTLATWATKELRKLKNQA
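FRET biosensor (snurportin 1 IBB flanked by EYFP and cerulean), 50 nM, with compound 5 min, then 0.125 microM importin beta in PBS, 1 mM DTT, 0.02% Tween-20, 0.1% BSA. CFP/YFP ratio read after 45 min at room temperature; pre-read flags interference.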
Starred values were filed as active, the others as inactive; ? = inconclusive; / = no result given; & = joins results of further samples. Only part of the results is shown; count on the stated rates, not on these rows.

Rango release inh	miR-21 FLuc	GLA inh pH 4.5	Rango-impB inh	canonical_smiles
33%	-6%	2	-2.6%	CN(C)S(=O)(=O)N1CCC(Oc2ccc(C(=O)NCC(C)(C)CO)cc2)CC1
-11%	-5%	-2	0.6%	Cc1nc2ccccc2c(=O)n1/N=C/c1ccc(O)cc1O
-12%	0%	/	0.0%	Cc1ccc(CNc2c(C=O)c(=O)[nH]c3ccccc23)cc1
31%	-2%	-13	-1.1%	S=c1[nH]nc(-c2ccccn2)n1/N=C/c1ccc(Cl)c(Cl)c1
1%	-10%	/	0.7%	COc1ccc(C)cc1NC(=O)CSc1ccc(-c2sc(C)nc2C)nn1
5%	/	/	-1.8%	Cc1ccc(NC(=O)CCc2ccc(S(=O)(=O)N3CCOCC3)cc2)c(O)c1
7%	-1%	-1	0.6%	O=C(O)C1C2CC2CN1C(=O)c1ccc(Cl)cc1 (stereo not given)
-8%	-1%	-15	0.8%	CC(c1nc2ccccc2c(=O)[nH]1)N1CCOCC1 (stereo not given)
-7%	-6%	2	0.3%	Cc1sc2nc(CC(=O)NN)[nH]c(=O)c2c1C
22%	-6%	-16	3.6%	CC(C)CC(OC(=O)c1nsc(Cl)c1Cl)C(=O)NCc1cccs1 (stereo not given)
11%	8%	?	1.2%	CC1=CSC2=NC(=O)/C(=C\c3cccn3-c3ccc([N+](=O)[O-])cc3)C(=N)N12
-4%	3%	-11	0.8%	Cc1cc(C)c(NC(=O)/C(=C/c2ccccc2)c2ccccc2)c(C)c1
5%	/	/	6.1%	O=C(COC(=O)c1cnccn1)NCCc1ccc(Cl)cc1
9%	-42%	7	12%	CC(C)c1ccc(OCc2ccc(C(=O)NN3CCN(C)CC3)o2)cc1
-7%	-4%	2	-1.9%	Cc1cccc(Nc2nnc(SCC(=O)N(C)C3CCS(=O)(=O)C3)s2)c1C (stereo not given)
-11%	16%	-2	?	CC(=O)NCCn1c(SCc2ccc(C)cc2C)nc2ccccc2c1=O
9%	/	/	0.4%	CCOC(=O)C1CCCN(S(=O)(=O)CCNC(=O)c2ccc3c(c2)OCO3)C1 (stereo not given)
9%	0%	/	-0.7%	CC(C)(C)OC(=O)N[C@@H](COCc1ccccc1)C(=O)N[C@@H](CO)[C@H](O)[C@@H]1C[C@@H]1C(=O)N1CCCC1
/	-3%	-3	/	COc1cc(/C=C(/C#N)c2nc(-c3cc4ccccc4oc3=O)cs2)cc([N+](=O)[O-])c1O
11%	-1%	-14	-0.3%	O=C(Cn1nnc(-c2ccccc2)n1)N1CCN(S(=O)(=O)c2ccc(Cl)cc2)CC1
-14%	/	/	1.8%	CC(C)CN(C(=O)COC(=O)C1=COCCO1)c1c(N)n(Cc2ccccc2)c(=O)[nH]c1=O
0%	-5%	-5	4.9%	O=C(NCc1ccncc1)c1cc2ccccc2nc1Cl
-10%	-6%	-1	-2.5%	Cc1ccc(S(=O)(=O)N(CC(=O)N2CCC(C(N)=O)CC2)c2cccc(C(F)(F)F)c2)cc1
?	-10%	/	?	Cc1ccc(S(=O)(=O)c2cc3c(=O)n4ccccc4nc3n(C3CCCC3)c2=N)cc1
5%	-2%	8	4.1%	O=C(NCc1cccnc1)C1c2ccccc2C(=O)N1C1CCCCCCC1 (stereo not given)
-30%	-3%	3	3.7%	Cc1cc(C(=O)O)c(CSc2ncn[nH]2)o1
14%	-6%	3	-0.9%	Cc1cc(C)nc(SCNC(=O)c2ccccc2)n1
1%	2%	4	2.0%	COc1ccc(C(=O)N(Cc2ccco2)C(C(=O)NC2CCCC2)c2ccc(O)cc2)cc1OC (stereo not given)
10%	/	/	0.5%	O=C(NNC(=O)c1ccc(Br)o1)c1ccc(NS(=O)(=O)c2cccs2)cc1
5%	-3%	-4	1.4%	COc1ccc(CN(CCCN2CCOCC2)C(=O)Nc2cccc(Cl)c2)cc1OC
-1%	-54%	0	0.4%	O=C(Nc1ccc(NC(=O)C23CC4CC(CC(C4)C2)C3)cn1)c1ccco1
0%	-18%	3	2.0%	O=CN1Cc2[nH]c3ccccc3c2N(c2ccc(Cl)cc2)C1=O
-11%	-3%	/	3.5%	Cc1cc(C)n(CCCNC(=O)CCNS(=O)(=O)c2ccccc2C(F)(F)F)n1
-3%	-18%	-4	-6.0%	COc1ccc(NC(=S)Nc2cnc3ccccc3c2)c(OC)c1
15%	/	/	3.4%	CC(C(=O)Nc1ccc(C(F)(F)F)cc1)N(C)CC(=O)N1CCN(Cc2ccccc2)CC1 (stereo not given)
-7%	1%	-1	-1.1%	N#Cc1cccc(C#N)c1Oc1ccc(S(=O)(=O)Nc2ccccc2)cc1
4%	-10%	-5	?	N#CCCCSc1nnc(Cc2ccc3c(c2)OCO3)o1
-13%	-4%	4	-4.2%	Cc1cc(NC(=O)CSc2nnc3c4c(C)c(C)sc4ncn23)no1
-15%	-6%	0	-2.2%	O=C(NC(=S)N1CCN(c2ccc(F)cc2)CC1)c1cccs1
15%	0%	7	1.2%	Cc1nn(Cc2ccc(Cl)cc2)c(C)c1NC(=O)C1CC=CCC1C(=O)O (stereo not given)
2%	-71%	/	1.8%	O=C(c1cc(-c2ccc(Br)cc2)on1)N1CCOCC1
-15%	4%	6	-5.9%	Cc1ccc2[nH]c(C)c(CCNC(=O)NC3CCCCC3)c2c1
?	4%	4	?	N#CC1=C(N)C(C#N)(C#N)C2(C(=O)Nc3ccccc32)C2CCCC=C12 (stereo not given)
1%	/	/	0.0%	COc1ccc(NC(=O)CCCNC(=O)c2ccc(Cl)cc2)cc1S(=O)(=O)N1CCOCC1
-6%	-1%	1	1.1%	O=C(NC1(C(F)(F)F)C(=O)Nc2c1c(=O)[nH]c(=O)n2Cc1ccccc1)c1ccc(Cl)cc1Cl (stereo not given)
-11%	/	/	3.3%	CC[C@@]12C(=O)N(c3cccc(F)c3)C(=O)N1[C@H](c1ccc(Br)cc1)[C@@H]1C(=O)N(C(C)(C)C)C(=O)[C@@H]12
0%	-15%	1	?	CCOC(=O)c1sc(/N=C/N(C)C)nc1C
-11%	/	/	-0.2%	CC1=C(C(=O)O)N2C(=O)C(NC(=O)c3c(F)cccc3F)C2SC1 (stereo not given)
3%	/	/	0.1%	Cn1c2c(c3ccccc31)CCN(CCCCN1CCN(c3ccccc3)CC1)C2=O
1%	-6%	6	-0.5%	CCc1nccn1S(=O)(=O)c1cc(Br)ccc1OC

(further entries)
Rango release inh	miR-21 FLuc	GLA inh pH 4.5	Rango-impB inh	canonical_smiles
-4%	/	/	0.9%	CCN1C(=O)[C@H]2[C@H]3CN=C(SCC4CC4)N3[C@@](Cc3ccccc3)(C(=O)OC)[C@H]2C1=O
0%	-38%	-14	0.3%	c1ccc(COc2ccc(OCCCNC3CCCC3)cc2)cc1
0%	-30%	/	4.1%	NC(=O)C1CCN(Cc2ccc(OCc3ccccc3)cc2)CC1
-3%	0%	1	1.4%	COc1ccc(-n2nc(C(=O)Nc3nc4ccc(OC)cc4s3)c3ccccc3c2=O)cc1
-7%	4%	/	3.2%	COc1ccc(-c2cc(=O)oc3cc(OCC(=O)Nc4ccc(CCO)cc4)ccc23)cc1
-12%	-3%	5	-1.9%	O=C(Cn1nc(Cc2cccnc2)c2ccccc2c1=O)Nc1ccccc1F
-4%	-53%	-23	-0.2%	CSc1ncccc1C(=O)OCc1ccccc1F
3%	/	/	0.7%	COc1ccc(-c2coc3cc(OC)ccc3c2=O)cc1
-4%	15%	-5	-1.5%	Cc1[nH]nc(-c2ccc(O)cc2O)c1Oc1ccccc1
-7%	6%	-4	-6.5%	Cc1cccc(NC(=O)Cn2cnc3c(oc4ccccc43)c2=O)c1C
6%	18%	5	2.0%	Brc1ccc(OCc2nc(-c3ccccn3)n[nH]2)cc1
14%	-1%	5	-1.7%	CCOC(=O)CC1C(=O)NCCN1S(=O)(=O)c1ccc(Br)cc1 (stereo not given)
12%	-7%	/	-1.1%	O=C(Cc1ccc([N+](=O)[O-])cc1)NC1CCCCCC1
10%	-3%	1	0.1%	CCOC(=O)c1sc(NC(=O)COC(=O)c2ccco2)nc1C
0%	0%	/	-2.9%	CCOc1ccc(NC(=O)NNC(=O)c2cccnc2)cc1
6%	-1%	-1	-4.1%	O=P(C1=C(N2CCOCC2)/C(=C\c2ccccc2)CC1)(N1CCOCC1)N1CCOCC1
12%	1%	-4	?	Cc1onc(-c2c(Cl)cccc2Cl)c1-c1nnc(-c2ccc(Cl)cc2)o1
17%	0%	8	-1.8%	Cn1c(=O)c2c(nc(N3CCOCC3)n2C)n(C)c1=O
0%	4%&18%	/	5.5%	Cc1ccc(NS(=O)(=O)c2ccc3c(c2)NC(=O)CCS3)cc1F
15%	0%	1	-2.3%	CCCn1c(OC)nc2c1c(=O)n(C)c(=O)n2C
5%	-8%	-2	-1.9%	CN(CCOCCOc1ccc(Cl)cc1Br)Cc1ccccc1
-18%	/	/	-2.6%	COc1ccc(Cl)cc1NC(=O)CN(C)C(=O)c1cc2c(F)cccc2s1
7%	/	/	-3.9%	CN(c1ccccc1)S(=O)(=O)c1ccc(Cl)c(C(=O)NCc2ccco2)c1
2%	-24%	0	-1.6%	O=c1[nH]cnc2c1oc1ccccc12
12%	-1%	-9	-0.3%	Cc1noc(C)c1C(c1ccccc1)S(=O)(=O)c1ccccc1 (stereo not given)

Three structures from above, ordered by formula weight, smallest number first.
Rango release inh	miR-21 FLuc	GLA inh pH 4.5	Rango-impB inh	canonical_smiles
-12%	-3%	5	-1.9%	O=C(Cn1nc(Cc2cccnc2)c2ccccc2c1=O)Nc1ccccc1F
12%	1%	-4	?	Cc1onc(-c2c(Cl)cccc2Cl)c1-c1nnc(-c2ccc(Cl)cc2)o1
-4%	/	/	0.9%	CCN1C(=O)[C@H]2[C@H]3CN=C(SCC4CC4)N3[C@@](Cc3ccccc3)(C(=O)OC)[C@H]2C1=O

Further entries:
Rango release inh	miR-21 FLuc	GLA inh pH 4.5	Rango-impB inh	canonical_smiles
26%	6%	-3	3.9%	COC(=O)c1ccc(NC(=O)CN2CCN(S(=O)(=O)c3cc(Cl)ccc3OC)CC2)cc1
9%	-8%	1	4.2%	N/C(Cc1cccc2ccccc12)=N\OC(=O)COc1ccccc1
-8%	-29%	4	0.0%	COc1ccc(NC(=O)N2CCCCCC2)cc1
-9%	13%	-7	-3.8%	C=CS(=O)(=O)c1sc(Cl)c(N2CCOCC2)c1[N+](=O)[O-]
-6%	19%	-5	-0.2%	Cc1ccnc(NC(=O)c2ccccc2NC(=O)C(C)(C)C)c1
-15%	-7%	-2	0.3%	Cc1sc2nc(C3CC3)nc(N3CCN(S(=O)(=O)c4ccc(F)cc4)CC3)c2c1C
10%	1%	-13	7.2%	O=C(Oc1ccc2c(c1)OCO2)c1ccc(Br)c(S(=O)(=O)N2CCOCC2)c1
17%	-23%	3	-2.9%	O=C(CC(c1ccccc1O)N1CCCCC1)N1CCCCC1 (stereo not given)
3%	-8%	-2	?	Cc1cc(NC(=O)c2cc(-c3ccccc3)on2)n(-c2ccccc2)n1
-1%	-11%	0	0.1%	O=C1NC(=Nc2ccccc2)S/C1=C/c1cccnc1
-13%	-2%	-1	-2.1%	NCC12CC3CC(CC(O)(C3)C1)C2
-1%	0%	/	-1.6%	Cc1[nH]c(=O)[nH]c(=O)c1S(=O)(=O)Nc1ccc(F)c(Cl)c1
-10%	14%	/	0.9%	O=C(N/C(=C/c1ccccc1)C(=O)N1CCCCC1)c1ccc(Br)o1
0%	-4%	/	8.7%	O=C(CCNC(=O)C1CCN(S(=O)(=O)c2ccccc2)CC1)NC1CC1
18%	-48%	-1	-0.3%	N#C/C(=N\Nc1ccc(F)cc1)C(=N)N1CCCCCC1
-20%	-47%	-4	?	COC(=O)CSc1nc2cc3c(cc2cc1C#N)OCO3
-1%	-9%	-3	-0.3%	Cc1ccccc1NC(=O)CN1C(=S)NC(C)(C)CC1C (stereo not given)
3%	-35%	9	0.8%	Nc1nnc(SCC(=O)c2ccc3ccccc3c2)s1

Full records, looked up by structure. Screens in order: Rango release inh, miR-21 FLuc, GLA inh pH 4.5, Rango-impB inh
CC(C)CN(C(=O)COC(=O)C1=COCCO1)c1c(N)n(Cc2ccccc2)c(=O)[nH]c1=O is listed as -14%, /, /, 1.8%
COc1ccc(CN(CCCN2CCOCC2)C(=O)Nc2cccc(Cl)c2)cc1OC is listed as 5%, -3%, -4, 1.4%
